# D2 potentiator = human D2 receptor positive allosteric modulation; potentiation, % (test concentration not listed); DiscoveRx D2 beta-arrestin cells, luminescence, 90 min; 100% = 57 uM dopamine signal; 360,000 compounds, 0.23% hits; AID 624464; active = potentiation of 50% or more; inconclusive = 30% to 50%; inactive = 30% or less;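 also: compound concentration not given in the record; tested on top of an EC20 dose of dopamine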
# Target sequence (P14416 whole entry, looked up): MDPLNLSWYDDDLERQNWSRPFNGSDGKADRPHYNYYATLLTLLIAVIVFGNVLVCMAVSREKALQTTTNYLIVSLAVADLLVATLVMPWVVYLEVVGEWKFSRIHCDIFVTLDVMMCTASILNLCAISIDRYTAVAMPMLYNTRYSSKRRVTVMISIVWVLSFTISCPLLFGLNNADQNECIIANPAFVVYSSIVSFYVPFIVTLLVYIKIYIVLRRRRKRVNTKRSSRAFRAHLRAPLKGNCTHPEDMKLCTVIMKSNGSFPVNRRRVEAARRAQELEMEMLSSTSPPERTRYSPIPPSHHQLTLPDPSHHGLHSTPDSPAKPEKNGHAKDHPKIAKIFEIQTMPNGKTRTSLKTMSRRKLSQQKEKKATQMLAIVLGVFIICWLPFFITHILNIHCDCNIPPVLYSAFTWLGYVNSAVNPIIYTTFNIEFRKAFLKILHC
#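 PathHunter beta-arrestin assay in DiscoveRx D2 cells. Compounds were added with an EC20 of dopamine (50 nM final) for 90 min at 37 deg C. Luminescence was read 1 h after detection reagent, with 57 uM dopamine as the EC100 control.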
# Sfp PPTase inh = blocks B. subtilis Sfp PPTase activity; Q9F4F7; Biochemical Sfp PPTase activity, qHTS; Potency, µM, for inactives: max response, negative = inhibition, hits mostly inhibitors; 310,000 compounds, 3.5% hits; active = well fitted inhibition curve with a large enough effect; inconclusive = small, poorly fitted or top-dose-only effect, or another doubt; inactive = no such curve, though single readings can be large or run the other way;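 also: the enzyme is Sfp with the accession as filed and its product quenches rhodamine fluorescence; potency is read from the fitted curve at half-maximal effect; 0% = enzyme reaction without inhibitor and -100% = no enzyme wells; top concentration of the series not given in the record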
#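 With Hepes-Na pH 7.6 buffer containing 10 mM MgCl2, Sfp (15 nM) modified BHQ-2-YbbR (12.5 uM) using rhodamine-CoA (5 uM). Two reads 30 minutes apart at 525/598 nm yielded each well's rate.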
# PINK1 modulator = PINK1 expression modulation. PINK1 immunofluorescence, high-content cytometry, 24 h. Potency, µM (series often up to 76.6 µM), inactives show top-dose activation (PINK1 increase), usual class: activators. 410,000 compounds, 0.2% hits; active = well fitted activation curve with a large enough effect; inconclusive = small, poorly fitted or top-dose-only effect; inactive = flat fitted curve, though single readings scatter; cell line not stated here;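 also: potency is read from the fitted curve at half-maximal effect; % of control where 0% means no effect; nearly all actives have a fitted effect of over 65% in size; a mitochondrial uncoupler was the plate control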
#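 A stable cell line was treated with compounds at 5 concentrations for 24 hours, with CCCP as control. PINK1 levels and mitochondrial localization were measured by immunofluorescence with mitochondrial, cell and nuclear markers after fixation, read by laser-scanning cytometry.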
# D2 agonist = agonists of human D2 dopamine receptor (beta-arrestin). P14416. DiscoveRx PathHunter D2 beta-arrestin, luminescence, 90 min; 100% = 57 uM dopamine signal. activation, % (test concentration not listed). 360,000 compounds, 0.084% hits. AID 624465; in the data active = activation above about 40%; inconclusive = about 15% to 40%; inactive = below about 15%; also: compound concentration not given in the record; the text of the record calls up to 30% inactive
#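 Agonist mode: compounds alone added to overnight-plated D2 PathHunter cells for 90 min at 37 C, with 57 uM final dopamine (EC100) defining full response. Beta-arrestin recruitment detected by chemiluminescent reagent, read after 1 h at ambient temperature.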
# Six1-Eya2 inh = inhibitors of human Six1/Eya2 interaction | AlphaScreen GST-Six1/His-Eya2 binding, biochemical; hits give low values; control for the full effect not named in the record | activity change, % (concentration not given with the values) | 360,000 compounds, 0.56% hits; in the data active = activity change below about -65%; inconclusive = about -30% to -65%; inactive = above about -30%; also: % is scaled to controls: 0 for no effect and ±100 for the full control effect
#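 AlphaScreen with GST-Six1 and His-Eya2 (5X mix: 250 nM and 500 nM), glutathione donor and nickel acceptor beads; buffer 50 mM Tris pH 8.0, 300 mM NaCl, 1 mM TCEP; 1 h at 37 C in the dark.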
# TRPV1 potentiator = enhances activation of the human vanilloid receptor TRPV1; Q8NER1; TRPV1-expressing cells, Fluo-8 calcium influx, capsaicin EC20 potentiation; host cell line not named in the record; control for the full effect not named in the record; potentiation, % at 8.33 µM; 320,000 compounds, 0.02% hits; AID 540277; active means potentiation above 80%; inconclusive means 30% to 80%; inactive means below 30%; also: 0% is about no effect
#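 TRPV1-expressing cells were cultured overnight at 35.5C and loaded with Fluo-8 calcium dye for 40 to 90 min at room temperature. After a 10 s baseline, compound was added and calcium influx was read kinetically for 3 min (ex 480/em 520 nm).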
# CtBP-E1A blk = inhibitors of CtBP/E1A interaction; AlphaScreen GST-E1A/His-CtBP binding, 1536-well; hits give low values; control for the full effect not named in the record; activity change, % (concentration not given with the values); 340,000 compounds, 0.49% hits; AID 651724; in the data active means activity change below about -65%; inconclusive means about -30% to -65%; inactive means above about -30%; also: % is scaled to controls: 0 for no effect and ±100 for the full control effect
#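 In 5 uL wells, 23 nL compound meets equimolar GST-E1A and His-CtBP (5X stock 125 nM each) for 2 h, 37 °C. Beads (5X, 50 ug/mL) then 1 h, 37 °C, dark.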
# * = called active by the depositor; ? = inconclusive; . = not tested or not shown; [ ] = remark or other dose.
# Start of the data: the first 4 entries as a preview:
SMILES,D2 potentiator,Sfp PPTase inh,PINK1 modulator,D2 agonist,Six1-Eya2 inh,TRPV1 potentiator,CtBP-E1A blk
CCOc1cc(S(=O)(=O)N2CCOCC2)ccc1F,-4,9%,1.5%,-3.8,2,-2,-3
O=C1NCCNC1c1ccccc1 (stereo not given),-10,.,-4.4%,1.2,15,.,-18
CC(=O)Nc1ccc(C(=O)NCCCSc2ccccc2)cc1,2,.,-0.7%,-1.1,2,.,7
COc1ccc(S(=O)(=O)NCC(=O)NCCc2ccc(OC)c(OC)c2)cc1,-7,.,-0.6%,-3.6,9,.,3

# The listing, from the first entry:
SMILES,D2 potentiator,Sfp PPTase inh,PINK1 modulator,D2 agonist,Six1-Eya2 inh,TRPV1 potentiator,CtBP-E1A blk
CCOc1cc(S(=O)(=O)N2CCOCC2)ccc1F,-4,9%,1.5%,-3.8,2,-2,-3
O=C1NCCNC1c1ccccc1 (stereo not given),-10,.,-4.4%,1.2,15,.,-18
CC(=O)Nc1ccc(C(=O)NCCCSc2ccccc2)cc1,2,.,-0.7%,-1.1,2,.,7
COc1ccc(S(=O)(=O)NCC(=O)NCCc2ccc(OC)c(OC)c2)cc1,-7,.,-0.6%,-3.6,9,.,3
CCOc1ccccc1NC(=O)CCCc1ccc(OC)c(C)c1,-19,5%,5.6%,-3.6,-2,-5,.
CCN(CC(=O)Nc1cc(Cl)ccc1C)C(=O)CN1C(=O)NC(CC)(c2ccccc2)C1=O (stereo not given),-21,.,5.3%,-0.2,-3,25,3
CN(C)C(=O)NC1c2ccccc2-c2ccccc21,-4,8%,1.1%,-8.1,1,14,3
COc1ccc(NS(=O)(=O)c2cccc(C(=O)NNC(=O)CN3C(=O)NC(C)(C)C3=O)c2)cc1,-4,.,-2.4%,-3.5,1,-6,7
Cc1ccc(CN(CC(=O)NCC2CCCO2)S(=O)(=O)c2ccc(C)cc2)cc1 (stereo not given),-11,15%,0.0%,0.4,10,2,3
COc1ccc(S(=O)(=O)NCc2cccnc2)cc1C(=O)N1CCCCC1,-12,14%,1.6%,-1.9,3,6,-7
COC(=O)c1scc(C)c1NC(=O)CC1NCCNC1=O (stereo not given),-1,6%,0.4%,-1.0,-1,?,.
CC(=O)/C(=N\Nc1ccc(C)cc1)Sc1nncn1C,-2,?,-0.7%,-8.5,-10,-5,-4
Fc1ccc(Nc2nc(N3CCOCC3)nc(N3CCOCC3)n2)cc1,-3,12%,-1.0%,-2.6,1,-7,-3
Cc1cnc(NC(=O)c2cccc(S(=O)(=O)N3CC(C)OC(C)C3)c2)s1 (stereo not given),-15,12%,0.3%,-2.5,-1,-12,.
COC(=O)C1=C(C)NC(=O)/C1=C\N(C)C,-7,-4%,1.0%,-3.4,3,-1,0
Cc1cccc(NC(=O)c2ccc(COc3ccc4ccccc4c3)o2)n1,1,2%,3.5%,-2.8,-1,10,-4
CC(=O)N1c2ccccc2C(C)CC12CCCCC2 (stereo not given),-22,-9%,-0.9%,-5.6,-1,-9,5
Cc1ccc(C)c(OCC(=O)Nc2ccc(N3CCOCC3)cc2N2CCOCC2)c1,-6,.,1.6%,0.4,-6,-5,-6
COc1ccc(C(=O)NC(=S)Nc2cc(C)ccn2)cc1[N+](=O)[O-],-7,-9%,13%,0.7,-6,19,5
Cc1ccc2c(c1)cc(CN(C(=O)N1CCOCC1)C1CCCC1)c1nnnn12,-6,6%,-0.5%,-5.1,3,13,0
CN(CC(=O)Nc1ccccc1Cl)C(=O)COC(=O)c1cc(S(=O)(=O)N(C)C)ccc1N1CCCC1,-22,.,12%,-5.3,-3,-3,7
O=[N+]([O-])c1cc(N=Nc2ccc3ccccc3c2)ccc1O,-19,11%,1.3%,-9.1,-1,-2,.
Cc1cc(=O)c2n(Cc3ccccc3Cl)nc[n+]2[nH]1,-2,5%,1.1%,-2.1,0,-6,-1
Cc1cc(C)cc(CC2CC(=O)N(c3nc(C)cc(C)n3)C2=O)c1 (stereo not given),6,4%,0.2%,-1.3,0,?,9
CC(C)COCC1CC2(CC(C)C(=O)CC2=O)C(=O)O1 (stereo not given),-18,-2%,-1.1%,-0.6,-7,6,-1

# Limited to D2 agonist, for some of the entries so far:
SMILES,D2 agonist
COc1ccc(S(=O)(=O)NCc2cccnc2)cc1C(=O)N1CCCCC1,-1.9
COC(=O)c1scc(C)c1NC(=O)CC1NCCNC1=O (stereo not given),-1.0

# (cont.)
SMILES,D2 potentiator,Sfp PPTase inh,PINK1 modulator,D2 agonist,Six1-Eya2 inh,TRPV1 potentiator,CtBP-E1A blk
Cc1ccc(N)c2c1OCCC2=O,-4,5%,11%,0.9,6,-6,-5
COc1cccc(CNC(=O)c2c(C)nn(-c3ccccc3)c2C)c1,-5,-6%,-0.1%,-4.4,4,?,-4
COC(=O)c1ccc(CNC(=O)COC(=O)/C=C/c2cc(OC)c(OC)c(OC)c2)cc1,-32,.,3.4%,-5.5,-4,.,-2
C/C(NCCCn1ccnc1)=C(\C#N)C(N)=O,6,2%,-1.6%,-3.7,-23,7,-5
Cc1ccc(NC(=O)CC(=O)Nc2ccc(C)c(C)c2)cc1C,-9,13%,3.7%,-3.7,-8,4,3
CC(C)(C)OC(=O)NCC(=O)Oc1cc2oc(=O)cc(-c3ccccc3)c2cc1Cl,12,16%,0.2%,-0.3,2,18,9
CCN(CC)CC(O)COc1ccc2c(c1)c(C(C)=O)c(C)n2-c1ccccc1 (stereo not given),-39,3%,0.2%,-2.5,-1,2,6
O=C(CNC(=O)c1ccco1)NCC(=O)OCc1c(F)cccc1Cl,4,12%,-0.3%,1.6,-3,5,1
O=C(O)CCC(=O)NNC(=O)COc1ccc(Cl)cc1Cl,-2,22%,0.6%,3.8,0,-3,.
COc1cc(NCCCCCCCN)c2ncccc2c1,?,?,5.9%,1.8,-13,4,?
COc1ccc(NC2=C(C(C)=O)C(c3ccc4c(c3)OCO4)C(C(C)=O)C(C)(O)C2)cc1 (stereo not given),11,-7%,4.9%[38.3 µM],3.1,-26,-23,-13
N#Cc1ccc(C(=O)Nn2cnnc2)cc1,-13,16%,1.2%,-8.3,6,-2,.
CC(OC(=O)C1CSC2(C)CCC(=O)N12)C(=O)Nc1ccc(F)cc1 (stereo not given),0,.,1.1%,1.0,-2,8,-3
O=C(C1CCN(S(=O)(=O)c2ccc(F)cc2)CC1)N1CCOCC1,-3,8%,5.0%[38.3 µM],0.3,7,-3,-22
COc1cccc(-n2c(SCC(=O)Nc3nc4ccccc4s3)nc3ccccc3c2=O)c1,-9,10%,2.7%,-2.2,-5,15,-2
O=C(CNC(=O)c1ccc(-c2ccccc2)cc1)OCc1c(Cl)cccc1Cl,-5,11%,8.6%,-2.2,12,12,10
CC(NC(=O)c1c(F)cccc1Cl)c1ccc(-n2ccnc2)cc1 (stereo not given),-20,-1%,-0.5%,-3.6,-4,-14,-9
CC(=O)c1c(C)[nH]c(C(=O)NC2=NCCS2)c1C,-13,15%,-1.2%,-0.7,-5,11,-7
Cc1cc2nc(-c3nnnn3C3CCCCC3)c(=O)[nH]c2cc1C,.,.,4.2%,.,0,.,6
OCC1(CCOc2ccccc2)CCN(Cc2cccn2-c2ncccn2)CC1,-3,11%,-0.6%,1.2,-2,-2,7
COc1ccc(-c2c(C(F)(F)F)oc3c(CN4CCN(C)CC4)c(O)ccc3c2=O)cc1,-18,14%,-0.8%,-2.5,-8,-1,-3
C/C(=N\NC(=O)c1ccc(NS(=O)(=O)c2cccs2)cc1)c1ccc(O)cc1O,-6,13%,1.9%,-0.6,?,10,?
O=C(O)CN(c1ccc2c(c1)OCCO2)S(=O)(=O)c1ccccc1,-8,25%,-1.2%,-1.6,7,11,10
O=C(NCCN1CCOCC1)c1cc(Sc2ccc(F)cc2F)nc2ccccc12,-13,11%,2.2%,-3.6,-1,-6,-2
COc1cccc(/C=C/C(=O)Nc2ccc3[nH]c(=O)[nH]c3c2)c1,-15,5%,0.4%,-1.0,-11,4,.

# (list continues)
SMILES,D2 potentiator,Sfp PPTase inh,PINK1 modulator,D2 agonist,Six1-Eya2 inh,TRPV1 potentiator,CtBP-E1A blk
CCOc1ccc(N(C(C)C(=O)NCc2ccco2)S(C)(=O)=O)cc1 (stereo not given),-1,-23%,-6.1%[38.3 µM],-0.6,-6,4,-3
CC(C)Cc1nc2n[nH]c(N)c2c2c1CCC2,0,12%,-0.8%,-2.9,-1,-4,1
Cc1ccc(/C=C(\C#N)C(=O)Nc2ccccn2)o1,-10,4%,-0.7%,-0.4,1,7,3
Cn1c(SCC(=O)N2CCN(c3ccccc3)CC2)nnc1-c1ccco1,-10,-8%,1.6%,-3.4,4,4,3
CN(CCCNS(=O)(=O)c1cccc2cccnc12)Cc1ccccc1,-2,0%,0.3%,-1.4,-7,15,0
COc1ccc(/C=C/CN2CCC(n3nccc3NC(=O)C3CC3)CC2)cc1,-20,10%,-0.3%,2.0,-1,-3,4
COc1ccc(CNC(=O)/C=C/[C@H]2O[C@@H](n3cc(C)c(=O)[nH]c3=O)C[C@@H]2O)cc1,-3,.,2.6%,-3.5,2,.,7
C[C@H]1COc2cccc(N3CCN(Cc4ccccc4F)CC3)c2S(=O)(=O)N1,.,.,-1.2%,.,-10,.,3
NC(c1csc(Nc2cc(Oc3ccccc3)ncn2)n1)C1CCCCC1 (stereo not given),-13,.,-1.0%,7.1,-13,.,-12
S=C1NC(c2ccccc2)=NCN1c1ccccc1,-2,6%,-3.2%,0.0,1,-4,0
N#Cc1ccccc1Cn1c(=O)n(C2CCCC2)c(=O)c2ccccc21,-5,5%,5.2%,-2.0,-11,24,-11
N#Cc1c(NC(=O)c2ccncc2)sc2c1CCC2,22,?,-6.1%[38.3 µM],5.5,-21,-1,-13
COc1ccc(S(=O)(=O)N2CC(=O)Nc3ccccc32)cc1C,-3,27%,4.6%,-3.8,0,-6,-2
O=C(CCCN=C1NS(=O)(=O)c2ccccc21)OCC(=O)c1ccccc1,-4,.,-0.6%,-4.2,-6,-20,8
N#CC1=C2SCN(Cc3ccccc3)CN2C(=O)CC1c1ccc2c(c1)OCO2 (stereo not given),-11,1.8µM*,-2.0%,-1.3,18,-2,0
CCOC(=O)c1[nH]c(C)c(C(=O)OCC(=O)NCc2ccc(OC)c(OC)c2)c1C,-2,.,0.0%,5.3,1,-4,.
Cc1cc(C)nc(NC(=NCCc2c[nH]c3ccccc23)NC(=O)C(C)(C)C)n1,-7,3%,7.6%,-2.1,-1,12,-11
CN(C(=O)/C=C/c1ccc2c(c1)OCO2)c1ccccc1,2,0%,-1.4%,-0.6,-2,-3,-5
